Peg3 imprint – genomic imprint erasure induction | Potency, µM (series often up to 60.7 µM), for the others: top-dose activity change, positive = activation, most hits filed as activators | mouse ES Peg3-LacZ reporter, beta-gal luminescence, 40 h | 110,000 compounds, 0.02% hits; active means well fitted activation curve with a large enough effect;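 further: 0% = negative control wells on the plate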
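Gelatin-coated wells received 300 freshly trypsinized female ES cells with a Peg3LacZ-Neo reporter on the maternal allele, then incubated 40 hours at 37C. BetaGlo was added for 5 minutes at room temperature before a single luminescence read.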
Numbers without * were called inactive; & = joins results of further samples; [ ] = dose if it differs, or a comment. Potency means the concentration at half of the fitted maximal effect.

SMILES	Peg3 imprint
O=C(c1ccccc1)c1ccccc1	-14.2%&-3.5%
CO[C@H]1[C@@H](OC(N)=O)[C@H](O)[C@@H](Oc2ccc3c(O)c(NC(=O)c4ccc(O)c(CC=C(C)C)c4)c(=O)oc3c2C)OC1(C)C	0.3%[16.8 µM]
CC(C)(C)c1ccc(C(O)CCCN2CCC(C(O)(c3ccccc3)c3ccccc3)CC2)cc1 (configuration not stated)	-34.9%[inhibitor]
CCn1nc(C(=O)O)c(=O)c2cc3c(cc21)OCO3	-7.4%
CCOC(=O)c1ccc(N2C(=O)c3[nH]nc(-c4ccc(OC)cc4)c3C2c2ccc(C)cc2)cc1 (configuration not stated)	14.2%[10.9 µM]
O=C(O)c1cccnc1SCCc1ccccc1	-89.2%[inhibitor]
CCN1CCN(C(=O)c2ccc(NS(=O)(=O)c3ccccc3)cc2)CC1	5.5%
CC(C)(C)c1ccc([C@@H](O)CCCN2CCC(C(O)(c3ccccc3)c3ccccc3)CC2)cc1	-5.2%[16.8 µM]

Source: PubChem (National Center for Advancing Translational Sciences (NCATS))

Some of the compounds tested; most or all hits stand in other tables.
